FGF22 binding: binders of human FGF22 protein, primary screen, FGF22 synaptogenesis inhibitor project, biophysical, thermal shift, single point; AID 651658, 2012; Fibroblast growth factor 22 (Homo sapiens), Q9HCT0; 340,000 tested, 1.5% active; recombinant FGF22 thermal shift, SYPRO orange fluorescence; percent of sucrose octasulfate shift, DMSO zero; calls only at 9.99 µM;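 active = melting point raised past a set limit in the mean and every replicate; three in four hits are not shown here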
Target sequence (Q9HCT0 whole entry, looked up): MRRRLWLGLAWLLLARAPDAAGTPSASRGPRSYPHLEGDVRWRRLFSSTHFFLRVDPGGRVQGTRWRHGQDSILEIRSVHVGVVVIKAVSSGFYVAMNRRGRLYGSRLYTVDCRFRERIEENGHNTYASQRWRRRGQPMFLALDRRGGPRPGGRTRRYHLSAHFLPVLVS
AF4-AF9 inh: inhibitors of AF4 peptide binding to AF9, primary screen, biochemical, AlphaScreen, biotin-AF4 peptide, FLAG-AF9, single point; inhibition, % at 10 µM; AID 651704, 2012; Protein AF-9 (Homo sapiens), P42568; 350,000 tested, 0.47% active;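 active = every replicate reaching a set inhibition limit, whatever the replicate mean, cut at about 25% in these data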;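 note: 0% = plate neutral control median and 100% = total signal loss; the record names both 10 and 1 µM as test concentration; the first replicate is given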
Target sequence (P42568 whole entry, looked up): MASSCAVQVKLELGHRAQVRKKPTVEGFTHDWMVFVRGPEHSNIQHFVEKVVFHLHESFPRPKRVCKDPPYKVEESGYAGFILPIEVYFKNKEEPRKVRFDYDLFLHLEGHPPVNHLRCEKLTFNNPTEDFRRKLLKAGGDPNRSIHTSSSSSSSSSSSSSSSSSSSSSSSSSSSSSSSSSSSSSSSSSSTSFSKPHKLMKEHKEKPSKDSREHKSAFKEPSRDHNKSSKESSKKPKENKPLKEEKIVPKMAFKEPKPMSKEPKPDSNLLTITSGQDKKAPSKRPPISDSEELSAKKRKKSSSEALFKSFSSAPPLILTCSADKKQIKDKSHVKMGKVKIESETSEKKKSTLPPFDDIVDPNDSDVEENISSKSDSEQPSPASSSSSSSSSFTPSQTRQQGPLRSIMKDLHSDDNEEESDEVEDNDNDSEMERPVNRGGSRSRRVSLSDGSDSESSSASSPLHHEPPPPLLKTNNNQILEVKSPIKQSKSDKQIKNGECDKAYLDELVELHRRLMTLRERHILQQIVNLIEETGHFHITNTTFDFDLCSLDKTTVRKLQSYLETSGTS
* hit, by the source's call; i = inactive; / = not tested or not shown. Not all compounds are listed; the hit share may differ from the screen's.

Results follow in this order: FGF22 binding	AF4-AF9 inh
1: Cc1ccccc1-c1ccc2c(c1)O[C@H](CN(C)CC1CC1)[C@H](C)CN([C@@H](C)CO)S2(=O)=O
  i	3.2
2: C[C@H]1CN([C@@H](C)CO)C(=O)Cc2cc(NC(=O)Nc3ccc4c(c3)OCO4)ccc2O[C@H]1CN(C)Cc1ccc(Oc2ccccc2)cc1
  i	7.5
3: Cc1noc(C)c1S(=O)(=O)N(C)C[C@@H]1Oc2c(NS(=O)(=O)c3cn(C)cn3)cccc2C(=O)N([C@@H](C)CO)C[C@@H]1C
  i	-1.6
4: C[C@@H]1CN([C@@H](C)CO)C(=O)c2cc(NC(=O)Cn3cnnn3)ccc2O[C@@H]1CN(C)Cc1ccc(Oc2ccccc2)cc1
  i	5.6
5: COc1ccc2c3c([nH]c2c1)[C@@H](CO)N(Cc1ccncc1)CC31CN(CC2CCOCC2)C1
  i	5.4
6: CS(=O)(=O)Nc1ccc2c(c1)[C@@H]1C[C@@H](CC(=O)NCc3cc(F)ccc3F)O[C@@H](CO)[C@@H]1O2
  i	0.1
7: O=C(C[C@H]1CC[C@H](NS(=O)(=O)c2ccc(F)cc2)[C@H](CO)O1)NC1CCC1
  i	0.9
8: C[C@H]1CN([C@@H](C)CO)S(=O)(=O)c2ccc(-c3cccc(C#N)c3)cc2O[C@@H]1CN(C)C
  i	0.4
9: CCCN(C)C[C@@H]1OCCCC[C@@H](C)Oc2ccc(NS(=O)(=O)c3ccc(C)cc3)cc2C(=O)N([C@H](C)CO)C[C@@H]1C
  i	0.3
10: C[C@H](CO)N1C[C@H](C)[C@H](CN(C)S(=O)(=O)c2ccccc2)OCCCC[C@H](C)Oc2ccc(NC(=O)Nc3ccccc3)cc2C1=O
  i	0.7
11: CCCN1[C@H](C(=O)NCC)[C@@H](CO)[C@@H]2Cn3c(ccc(-c4ccccc4F)c3=O)[C@@H]21
  i	-1.4
12: C[C@H](CO)N1C[C@H](C)[C@H](CN(C)Cc2ccc(Cl)c(Cl)c2)Oc2c(NC(=O)c3nc4ccccc4s3)cccc2C1=O
  i	4.5
13: COC(=O)[C@H]1[C@@H](O)[C@@]2(O)c3c(OC)cc(OC)cc3O[C@@]2(c2ccc(OC)cc2)[C@@H]1c1ccc(F)cc1
  /	1.3
14: C[C@@H]1CN([C@@H](C)CO)C(=O)c2cc(NC(=O)CCC(F)(F)F)ccc2O[C@@H](C)CCCCO[C@H]1CN(C)C(=O)CCC(F)(F)F
  i	-0.4
15: C[C@@H]1CCCCO[C@@H](CN(C)Cc2ccc(Cl)c(Cl)c2)[C@H](C)CN([C@H](C)CO)C(=O)c2cc(NC(=O)C3CCCCC3)ccc2O1
  i	3.0
16: COc1ccc(S(=O)(=O)Nc2ccc3c(c2)C(=O)N([C@@H](C)CO)C[C@@H](C)[C@H](CN(C)S(=O)(=O)c2ccc(C)cc2)OCCCC[C@@H](C)O3)cc1
  i	-1.3
17: C[C@@H]1CN([C@H](C)CO)C(=O)c2cc(NC(=O)Cc3cn(C)c4ccccc34)ccc2O[C@H]1CN(C)Cc1ccc(Oc2ccccc2)cc1
  i	3.1
18: C[C@H](CO)N1C[C@H](C)[C@H](CN(C)Cc2ccccc2)Oc2ncc(C3=CCCC3)cc2C1=O
  i	0.1
19: C[C@@H]1CN([C@H](C)CO)C(=O)Cc2cc(NS(=O)(=O)c3cn(C)cn3)ccc2O[C@@H]1CN(C)Cc1ccncc1
  i	-2.4
20: O=C(C[C@@H]1CC[C@H]2[C@@H](COC[C@H](O)CN2Cc2ccc(F)cc2)O1)N1CCc2ccccc2C1
  i	-1.5
21: CN(C)C(=O)c1cc2c(c(-c3cccc(C4=CCCCC4)c3)n1)[C@H](CCO)N(S(C)(=O)=O)C2
  i	-15
22: C[C@@H]1CN([C@@H](C)CO)C(=O)c2cccc(NC(=O)C3CCOCC3)c2O[C@H]1CN(C)Cc1ccncc1
  i	-0.9
23: N#C[C@@H]1[C@H](c2ccc(-c3cccnc3)cc2)[C@@H](CO)N1C(=O)C1CC1
  i	-1.9
24: C[C@@H]1CN([C@H](C)CO)C(=O)c2cc(NC(=O)CCCCCC(=O)Nc3ccccc3N)ccc2O[C@@H]1CN(C)C(=O)Nc1ccc2c(c1)OCO2
  i	-0.3
25: CCC(=O)N(C)C[C@@H]1Oc2ncc(-c3ccccc3C)cc2C(=O)N([C@@H](C)CO)C[C@H]1C
  i	-3.9
26: C[C@@H]1CCCCO[C@H](CN(C)CC2CCCCC2)[C@@H](C)CN([C@H](C)CO)C(=O)c2cc(NS(=O)(=O)c3ccc(F)cc3)ccc2O1
  i	3.6
27: O=C(O)C[C@H]1C[C@@H]2c3cc(NC(=O)Nc4ccccc4)ccc3O[C@@H]2[C@H](CO)O1
  i	-8.3
28: O=C(C[C@@H]1CC[C@H]2[C@@H](COC[C@H](O)CN2CCc2ccccc2)O1)NCc1ccccc1
  i	-1.3
29: Cc1ccc(S(=O)(=O)N(C)C[C@@H]2Oc3ccc(NC(=O)NC4CCCCC4)cc3CC(=O)N([C@H](C)CO)C[C@@H]2C)cc1
  i	0.4
30: C[C@H]1CN([C@@H](C)CO)C(=O)c2ccccc2-c2ccccc2CO[C@H]1CN(C)C(=O)Nc1ccc(-c2ccccc2)cc1
  i	2.7

Record cards, from the list above. Order of screens: FGF22 binding | AF4-AF9 inh
Listed for C[C@H]1CN([C@@H](C)CO)C(=O)Cc2cc(NC(=O)Nc3ccc4c(c3)OCO4)ccc2O[C@H]1CN(C)Cc1ccc(Oc2ccccc2)cc1 = i | 7.5
Listed for CCCN1[C@H](C(=O)NCC)[C@@H](CO)[C@@H]2Cn3c(ccc(-c4ccccc4F)c3=O)[C@@H]21 = i | -1.4
Listed for C[C@@H]1CN([C@H](C)CO)C(=O)c2cc(NC(=O)CCCCCC(=O)Nc3ccccc3N)ccc2O[C@@H]1CN(C)C(=O)Nc1ccc2c(c1)OCO2 = i | -0.3

In a second layout: entries from further up
16. COc1ccc(S(=O)(=O)Nc2ccc3c(c2)C(=O)N([C@@H](C)CO)C[C@@H](C)[C@H](CN(C)S(=O)(=O)c2ccc(C)cc2)OCCCC[C@@H](C)O3)cc1
  FGF22 binding: i
  AF4-AF9 inh: -1.3
17. C[C@@H]1CN([C@H](C)CO)C(=O)c2cc(NC(=O)Cc3cn(C)c4ccccc34)ccc2O[C@H]1CN(C)Cc1ccc(Oc2ccccc2)cc1
  FGF22 binding: i
  AF4-AF9 inh: 3.1

More compounds
Results follow in this order: FGF22 binding	AF4-AF9 inh
31: C[C@@H]1CN([C@H](C)CO)C(=O)c2cc(C#CC3CCCCC3)cnc2O[C@@H]1CN(C)S(=O)(=O)c1ccc(F)cc1
  i	-8.7
32: CCCNC(=O)Nc1ccc2c(c1)OC[C@@H](C)N(Cc1ccncc1)C[C@H](C)[C@@H](OC)CN(C)C2=O
  i	0.4
33: N#Cc1ccc(-c2ccc3c(c2)[C@@H]2[C@@H](CCN2C(=O)CN2CCOCC2)[C@H](CO)N3)cc1
  i	3.5
34: O=C(c1ccccn1)N1CC(=O)N2[C@H](CO)[C@H](c3ccc(C#CC4CCCC4)cc3)[C@H]2C1
  i	-3.4
35: CO[C@H]1CN(C)C(=O)c2ccc(NC(=O)C3CC3)cc2OC[C@H](C)N(C(=O)c2ccccn2)C[C@@H]1C
  i	-0.8
36: CCS(=O)(=O)N1CCCCN2[C@H](CO)[C@H](c3ccc(-c4ccc(C(=O)N(C)C)cc4)cc3)[C@@H]2C1
  i	-7.7
37: CN1CCN(C(=O)C[C@H]2CC[C@@H]3[C@H](COC[C@H](O)CN3Cc3ccc4c(c3)OCO4)O2)CC1
  i	-3.3
38: O=C(N[C@H]1C=C[C@@H](CC(=O)N2CCN(c3ccccc3)CC2)O[C@H]1CO)c1ccccc1
  i	-0.3
39: C[C@@H]1CCCCO[C@@H](CN(C)Cc2ccc3c(c2)OCO3)[C@@H](C)CN([C@@H](C)CO)C(=O)c2cc(NC(=O)c3ccncc3)ccc2O1
  i	2.4
40: C[C@@H]1CN([C@@H](C)CO)S(=O)(=O)c2ccc(C#CC3CC3)cc2O[C@H]1CN(C)Cc1ccccc1F
  i	0.1
41: C[C@H]1CN([C@@H](C)CO)C(=O)Cc2cc(NS(=O)(=O)c3cn(C)cn3)ccc2O[C@H]1CN(C)CC1CC1
  i	-2.0
42: CC(=O)N1CCCCN2[C@H](C1)[C@@H](c1ccc(-c3ccc(F)cc3)cc1)[C@@H]2CO
  i	-5.3
43: OC[C@@H]1[C@H](c2ccccc2)C2(CN(Cc3nccs3)C2)N1Cc1cccnc1
  i	1.1
44: C[C@@H]1CN([C@@H](C)CO)C(=O)c2cccc(NS(=O)(=O)c3cn(C)cn3)c2O[C@@H]1CN(C)C(=O)Nc1cccc2ccccc12
  i	-1.1
45: C[C@@H]1CCCCO[C@@H](CN(C)Cc2ccc(C(F)(F)F)cc2)[C@H](C)CN([C@H](C)CO)C(=O)c2cc(NC(=O)Nc3ccc(F)cc3)ccc2O1
  i	0.8
46: C[C@@H]1CN([C@@H](C)CO)C(=O)c2cc(NC(=O)Cn3cnnn3)ccc2O[C@H]1CN(C)C(=O)Nc1cccc2ccccc12
  i	-2.5
47: CO[C@@H]1CN(C)C(=O)c2ccc(NC(=O)C3CCCC3)cc2OC[C@H](C)N(CC2CC2)C[C@H]1C
  i	-0.5
48: C[C@H](CO)N1C[C@H](C)[C@H](CN(C)Cc2ccc(C(=O)Nc3ccccc3N)cc2)Oc2ccc(NS(=O)(=O)c3cn(C)cn3)cc2CC1=O
  i	1.1
49: CO[C@@H]1CN(C)C(=O)c2ccc(NC(=O)C3CC3)cc2OC[C@@H](C)N(CCC(F)(F)F)C[C@H]1C
  i	-2.6
50: CNC[C@H]1Oc2ccc(NS(=O)(=O)c3c(C)noc3C)cc2CC(=O)N([C@@H](C)CO)C[C@@H]1C
  i	-4.1
51: O=C([C@@H]1[C@@H](CO)[C@@H]2Cn3c(ccc(-c4ccccc4)c3=O)[C@H]1N2Cc1cccnc1)N1CCOCC1
  i	1.1
52: C[C@H]1CN([C@@H](C)CO)C(=O)c2cc(NS(=O)(=O)c3cn(C)cn3)ccc2O[C@@H]1CN(C)Cc1ccccc1
  i	0.6
53: O=C(C[C@H]1CC[C@H]2[C@@H](COC[C@H](O)CN2C(=O)Nc2ccccc2)O1)NCCc1ccncc1
  i	-1.1
54: C[C@@H]1CN([C@@H](C)CO)C(=O)c2cc(C#Cc3ccccc3)cnc2O[C@H]1CN(C)C(=O)CN(C)C
  i	17
55: C[C@@H]1CN([C@@H](C)CO)C(=O)c2cc(NS(=O)(=O)c3ccccc3)ccc2O[C@@H](C)CCCCO[C@H]1CN(C)C(=O)Nc1cccc2ccccc12
  i	-2.0
56: CNC[C@@H]1Oc2ncc(Br)cc2C(=O)N([C@@H](C)CO)C[C@H]1C
  i	-2.0
57: CCCNC(=O)NC[C@@H]1[C@@H](c2ccc(C3=CCCCC3)cc2)[C@@H](CO)N1C(C)=O
  i	7.9
58: C[C@H](CO)N1C[C@H](C)[C@H](CN(C)S(=O)(=O)c2cccs2)Oc2ccc(NC(=O)Nc3ccccc3)cc2CC1=O
  i	0.3
59: C[C@@H]1CN([C@H](C)CO)C(=O)c2cccc(NS(=O)(=O)c3cn(C)cn3)c2O[C@H]1CN(C)C(=O)NC1CCCCC1
  i	-0.5
60: O=C(C[C@H]1CC[C@H](NC(=O)c2ccc(F)cc2)[C@@H](CO)O1)NCc1ccncn1
  i	-0.2

The list continues:
Results follow in this order: FGF22 binding	AF4-AF9 inh
61: COc1cccc(-c2ccc3n(c2=O)C[C@@H]2[C@@H](CO)[C@H](C(=O)N(C)C)[C@H]3N2CC2CC2)c1
  i	-1.0
62: CCCN(C)C[C@@H]1OCc2cnnn2CCCC(=O)N([C@@H](C)CO)C[C@H]1C
  i	-2.3
63: CCC(=O)N1[C@H](CN(CC)C(C)=O)[C@@H](c2ccc(-c3cccnc3)cc2)[C@@H]1CO
  i	-3.0
64: CCCC#Cc1ccc2c(c1)O[C@@H](CN(C)Cc1ccccc1)[C@@H](C)CN([C@H](C)CO)S2(=O)=O
  i	1.4
65: CNC[C@@H]1Oc2ccc(NC(=O)Nc3ccc(C(F)(F)F)cc3)cc2C(=O)N([C@@H](C)CO)C[C@H]1C
  i	3.4
66: C[C@H](CO)N1C[C@H](C)[C@H](CN(C)S(=O)(=O)c2cccs2)Oc2ccc(NC(=O)CCCN(C)C)cc2C1=O
  i	-0.1
67: C[C@H](CO)N1C[C@H](C)[C@H](CN(C)C(=O)Nc2ccc(C(F)(F)F)cc2)OCCCC[C@H](C)Oc2ccc(NS(C)(=O)=O)cc2C1=O
  i	-3.1
68: C[C@@H]1CN([C@H](C)CO)C(=O)c2cc(NC(=O)Nc3cccc4ccccc34)ccc2O[C@@H]1CN(C)C
  i	2.7
69: CO[C@H]1CN(C)C(=O)c2ccc(NC(=O)Nc3ccccc3)cc2OC[C@H](C)N(CC2CC2)C[C@H]1C
  i	5.6
70: C[C@H](NC(=O)C[C@@H]1CC[C@@H](NC(=O)CN2CCOCC2)[C@@H](CO)O1)c1ccccc1
  i	1.2
71: C[C@@H]1CN([C@H](C)CO)C(=O)c2cc(NC(=O)Cc3ccccc3)ccc2O[C@@H](C)CCCCO[C@@H]1CN(C)CC1CCCCC1
  i	1.9
72: COCC#Cc1ccc([C@H]2[C@@H](CO)N3CCCCN(S(=O)(=O)c4ccc(OC)cc4)C[C@H]23)cc1
  i	6.4
73: Cc1noc(C)c1NC(=O)N(C)C[C@H]1OCc2ccccc2-c2c(n(C)c3ccccc23)C(=O)N([C@H](C)CO)C[C@@H]1C
  i	-0.4
74: O=S(=O)(NCC[C@H]1CC[C@H](NS(=O)(=O)c2cccc(Cl)c2)[C@@H](CO)O1)c1cccc(F)c1
  i	1.6
75: CCC(=O)Nc1ccc2c(c1)C(=O)N(C)[C@@H]1CC[C@H](CC(=O)NC3CCCC3)O[C@@H]1CO2
  i	-0.2

Screening data as filed in PubChem BioAssay.
